Yeast UUG start – modulators of start codon recognition fidelity in yeast. activity score, % at 18.7 µM. AID 602363. S. cerevisiae UUG-firefly luciferase reporter, luminescence/redox ratio. actives 0.13% (n = 350,000);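 active means replicate mean at a twofold rise or more, about +100% in these data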;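 further: firefly luciferase made from a UUG start codon reports start codon fidelity; reporter light over untreated wells divided by growth signal over untreated wells; some hits fall short of that in this replicate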
HIV Env fusion – inhibitors of HIV Env-mediated cell fusion. HeLa-JRFL Env/CEM21 cell fusion, luciferase. inhibition, % at 12.3 µM. actives 1.1% (n = 360,000). AID 651610;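 active means mean replicate inhibition score of at least 50 and every replicate individually at or above 50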;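 further: 0% = plate neutral controls and 100% = maraviroc near 300 nM; one replicate is shown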
* = called active by the depositor; & = joins results of further samples; [ ] = dose if it differs, or a comment. Only part of the results is shown, so the mix of outcomes need not match the whole.

1: Cc1ccc(S(=O)(=O)Nc2ccc3c(c2)C(=O)N([C@@H](C)CO)C[C@@H](C)[C@@H](CN(C)S(C)(=O)=O)OCCCC[C@@H](C)O3)cc1
2: N#C[C@@H]1[C@@H](c2ccccc2)[C@H](CO)N1S(=O)(=O)c1ccc(-c2ccccc2)cc1
3: C[C@H](CO)N1C[C@H](C)[C@H](CN(C)Cc2ccc(Cl)c(Cl)c2)Oc2ccc(NC(=O)Cc3cn(C)c4ccccc34)cc2CC1=O
4: CC(C)NC(=O)N(C)C[C@H]1OCCCC[C@H](C)Oc2ccc(NC(=O)Nc3cccc4ccccc34)cc2C(=O)N([C@@H](C)CO)C[C@H]1C
5: CN(C)C(=O)C[C@H]1C[C@H]2c3cc(NS(C)(=O)=O)ccc3O[C@H]2[C@@H](CO)O1
6: CNC(=O)C[C@H]1CC[C@@H]2[C@@H](COc3ccc(NC(=O)c4cc(C)on4)cc3C(=O)N2C)O1

screen / no.,1,2,3,4,5,6
Yeast UUG start,32,-4,11,-13,-6,-8
HIV Env fusion,-14[16.7 µM],16[16.7 µM],11[16.7 µM],-18[16.7 µM],-7[16.7 µM],-16[16.7 µM]

7: COc1ccc(S(=O)(=O)N(C)C[C@@H]2Oc3ccc(NC(=O)Nc4ccccc4)cc3CC(=O)N([C@@H](C)CO)C[C@H]2C)cc1
8: C[C@H]1CN([C@@H](C)CO)S(=O)(=O)c2ccc(C#Cc3ccc(F)cc3)cc2O[C@@H]1CN(C)C(=O)c1ccccn1
9: CCCNC(=O)N(C)C[C@H]1Oc2ncc(-c3ccccc3)cc2C(=O)N([C@H](C)CO)C[C@@H]1C
10: COc1ccc(NC(=O)N[C@@H]2C=C[C@H](CC(=O)NCc3ccccn3)O[C@@H]2CO)cc1
11: COc1ccc(NC(=O)N(C)C[C@@H]2OCc3cnnn3CCCC(=O)N([C@H](C)CO)C[C@H]2C)c(OC)c1
12: C[C@@H]1CN([C@H](C)CO)S(=O)(=O)c2ccc(C#CC3CC3)cc2O[C@@H]1CN(C)C(=O)c1cnccn1

screen / no.,7,8,9,10,11,12
Yeast UUG start,4,-2,-5,-8,19,7
HIV Env fusion,34[16.7 µM],9[16.7 µM],-13[16.7 µM],-7[16.7 µM],21,6[16.7 µM]

An excerpt from above in order of the Yeast UUG start value, ascending.
entry	Structure	Yeast UUG start	HIV Env fusion
10	COc1ccc(NC(=O)N[C@@H]2C=C[C@H](CC(=O)NCc3ccccn3)O[C@@H]2CO)cc1	-8	-7[16.7 µM]
5	CN(C)C(=O)C[C@H]1C[C@H]2c3cc(NS(C)(=O)=O)ccc3O[C@H]2[C@@H](CO)O1	-6	-7[16.7 µM]
9	CCCNC(=O)N(C)C[C@H]1Oc2ncc(-c3ccccc3)cc2C(=O)N([C@H](C)CO)C[C@@H]1C	-5	-13[16.7 µM]

Continuation:
13: CCCNC(=O)C[C@@H]1CC[C@@H]2[C@H](COc3ccc(NC(=O)c4cccc(OC)c4)cc3C(=O)N2C)O1
14: C[C@H]1CN([C@@H](C)CO)C(=O)c2cc(NS(C)(=O)=O)ccc2O[C@@H]1CN(C)Cc1ccc(Oc2ccccc2)cc1
15: C[C@@H]1CN([C@@H](C)CO)C(=O)c2cccc(NC(=O)Nc3cccc4ccccc34)c2O[C@H]1CN(C)C(=O)Nc1ccccc1
16: C[C@H](CO)N1C[C@H](C)[C@@H](CN(C)C(=O)NC2CCCCC2)Oc2ccc(NC(=O)CCCCCC(=O)Nc3ccccc3N)cc2CC1=O
17: Cc1noc(C)c1NC(=O)N(C)C[C@H]1Oc2ccc(NC(=O)CCC(F)(F)F)cc2CC(=O)N([C@@H](C)CO)C[C@H]1C
18: C/C=C/c1cnc2c(c1)C(=O)N([C@H](C)CO)C[C@H](C)[C@@H](CN(C)C(=O)Cc1ccccn1)O2

screen / no.,13,14,15,16,17,18
Yeast UUG start,22,-5,12,-6,10,3
HIV Env fusion,0[16.7 µM],10[16.7 µM],-8[16.7 µM],-9[16.7 µM],-7[16.7 µM],0[16.7 µM]

19: CCCNC(=O)C[C@@H]1C[C@H]2c3cc(NC(=O)c4cccnc4)ccc3O[C@H]2[C@H](CO)O1
20: C[C@@H]1CN([C@H](C)CO)C(=O)Cc2cc(NS(=O)(=O)c3ccc(F)cc3)ccc2O[C@H]1CN(C)Cc1ccncc1
21: C[C@H](CO)N1C[C@H](C)[C@H](CN(C)S(=O)(=O)c2cn(C)cn2)Oc2c(NC(=O)Nc3ccccc3)cccc2C1=O
22: COc1ccc(NC(=O)N(C)C[C@@H]2OCCCC[C@@H](C)Oc3ccc(NC(=O)Nc4c(C)noc4C)cc3C(=O)N([C@H](C)CO)C[C@@H]2C)cc1
23: C[C@@H]1CN([C@@H](C)CO)C(=O)c2cc(C#CC3(O)CCCC3)cnc2O[C@H]1CN(C)Cc1cccnc1
24: O=C(C[C@H]1CC[C@@H](NC(=O)c2ccncc2)[C@@H](CO)O1)NCC1CCCCC1

screen / no.,19,20,21,22,23,24
Yeast UUG start,-18,2,-7,-1,8,-1
HIV Env fusion,71*[16.7 µM],31[16.7 µM],-2[16.7 µM],12[16.7 µM],0[16.7 µM],-139[16.7 µM]

25: CCCN(C)C[C@H]1Oc2cc(C#Cc3ccccc3F)ccc2S(=O)(=O)N([C@H](C)CO)C[C@@H]1C
26: C[C@@H]1CN([C@H](C)CO)C(=O)c2cc(C#Cc3ccc(F)cc3)cnc2O[C@@H]1CN(C)C
27: COc1cccc(-c2cnc3c(c2)C(=O)N([C@H](C)CO)C[C@H](C)[C@H](CN(C)S(=O)(=O)c2ccccc2)O3)c1
28: CNC[C@H]1Oc2cc(C#Cc3ccccc3)ccc2S(=O)(=O)N([C@H](C)CO)C[C@@H]1C
29: Cc1ccccc1S(=O)(=O)N1[C@H](C#N)[C@@H](c2ccccc2)[C@@H]1CO
30: Cc1noc(C)c1S(=O)(=O)Nc1ccc2c(c1)C(=O)N([C@H](C)CO)C[C@@H](C)[C@H](CN(C)Cc1ccncc1)OCCCC[C@H](C)O2

screen / no.,25,26,27,28,29,30
Yeast UUG start,19,2,-3,2,-3,-4
HIV Env fusion,2[16.7 µM],8[16.7 µM],-5[16.7 µM],42[16.7 µM],1[16.7 µM],-6[16.7 µM]

31: OC(c1ccc2ccccc2n1)c1c(Cl)cccc1Cl (stereo not given)
32: C[C@@H]1CCCCO[C@H](CN(C)C(=O)Nc2ccccc2)[C@H](C)CN([C@H](C)CO)C(=O)c2cc(NC(=O)NC3CCCCC3)ccc2O1
33: C[C@@H]1CN([C@H](C)CO)C(=O)c2cc(C#CC(C)(C)O)cnc2O[C@@H]1CN(C)C(=O)c1ccccc1F
34: CN(C)CC(=O)Nc1ccc2c(c1)[C@@H]1C[C@@H](CC(=O)NCc3ccccn3)O[C@@H](CO)[C@@H]1O2
35: CNC[C@H]1OCCCC[C@H](C)Oc2ccc(NC(=O)Nc3ccccc3)cc2C(=O)N([C@@H](C)CO)C[C@@H]1C
36: COCCNC(=O)C[C@@H]1C[C@H]2c3cc(NC(=O)NC4CCCCC4)ccc3O[C@H]2[C@H](CO)O1

screen / no.,31,32,33,34,35,36
Yeast UUG start,-7,-11,9,-21,18,2
HIV Env fusion,2,-20[16.7 µM],20[16.7 µM],0[16.7 µM],-10[16.7 µM],3[16.7 µM]

37: C[C@@H]1CCCCO[C@H](CN(C)C(=O)Nc2ccc(C(F)(F)F)cc2)[C@@H](C)CN([C@@H](C)CO)C(=O)c2cc(NC(=O)CCC(F)(F)F)ccc2O1
38: CN1C(=O)c2cc(NC(=O)c3cccs3)ccc2OC[C@H]2O[C@H](CC(=O)NCC(F)(F)F)CC[C@H]21
39: C[C@@H]1CCCCO[C@H](CN(C)C(=O)Nc2ccc3c(c2)OCO3)[C@H](C)CN([C@H](C)CO)C(=O)c2cc(NC(=O)Nc3ccc(C(F)(F)F)cc3)ccc2O1
40: Cc1ccc(S(=O)(=O)Nc2ccc3c(c2)C(=O)N([C@H](C)CO)C[C@@H](C)[C@@H](CN(C)S(C)(=O)=O)OCCCC[C@H](C)O3)cc1
41: COc1ccccc1NC(=O)N(C)C[C@H]1Oc2cc(Br)ccc2S(=O)(=O)N([C@H](C)CO)C[C@@H]1C
42: C[C@@H]1CN([C@H](C)CO)S(=O)(=O)c2ccc(C#Cc3cccc(F)c3)cc2O[C@H]1CN(C)S(=O)(=O)c1ccccc1F

screen / no.,37,38,39,40,41,42
Yeast UUG start,-7,9,-16,20,7&0,-1
HIV Env fusion,-11[16.7 µM],4[16.7 µM],20[16.7 µM],-12[16.7 µM],-36&4[16.7 µM],30[16.7 µM]

43: C[C@H]1CN([C@@H](C)CO)C(=O)c2cc(NS(=O)(=O)c3cn(C)cn3)ccc2O[C@@H]1CN(C)Cc1ccc(C(F)(F)F)cc1
44: O=[N+]([O-])c1ccccc1S(=O)(=O)N1CCN(Cc2cccc(OCCO)c2)CC1
45: C[C@H](CO)N1C[C@H](C)[C@H](CN(C)S(=O)(=O)c2ccc(C#N)cc2)Oc2ncc(-c3cccc(F)c3)cc2C1=O
46: Cc1ccc(S(=O)(=O)Nc2ccc3c(c2)CC(=O)N([C@H](C)CO)C[C@H](C)[C@@H](CN(C)S(=O)(=O)c2ccc(Cl)cc2)O3)cc1
47: CNC[C@@H]1Oc2ccc(NC(=O)C3CC3)cc2CC(=O)N([C@H](C)CO)C[C@@H]1C
48: C[C@H]1CN([C@@H](C)CO)C(=O)Cc2cc(NC(=O)c3ccncc3)ccc2O[C@@H]1CN(C)S(=O)(=O)c1cn(C)cn1

screen / no.,43,44,45,46,47,48
Yeast UUG start,15,3,24,8,3,-5
HIV Env fusion,9[16.7 µM],2[16.7 µM],44[16.7 µM],6[16.7 µM],-12[16.7 µM],1[16.7 µM]

49: C[C@@H]1CCCCO[C@H](CN(C)Cc2ccccc2)[C@H](C)CN([C@@H](C)CO)C(=O)c2cc(NS(=O)(=O)c3cccs3)ccc2O1
50: CCCNC(=O)N1[C@H](CO)[C@H](c2ccc(/C=C/c3ccccc3)cc2)[C@@H]1C#N
51: COc1ccccc1NC(=O)N[C@@H]1CC[C@H](CCn2cc(-c3ccccc3OC)nn2)O[C@H]1CO
52: O=S(=O)(N[C@H]1CC[C@H](CCn2cc(-c3ccccn3)nn2)O[C@H]1CO)c1cccc(Cl)c1
53: C[C@@H]1CN([C@H](C)CO)C(=O)Cc2cc(NC(=O)Nc3ccccc3)ccc2O[C@@H]1CN(C)C(=O)Nc1ccc(C(F)(F)F)cc1
54: C[C@H](CO)N1C[C@H](C)[C@@H](CN(C)C(=O)Cc2cccnc2)Oc2ncc(C#CCN(C)C)cc2C1=O

screen / no.,49,50,51,52,53,54
Yeast UUG start,34,-4,3,35,11,-26
HIV Env fusion,4[16.7 µM],-13[16.7 µM],21[16.7 µM],9[16.7 µM],-2[16.7 µM],-2[16.7 µM]

55: COc1cccc(-c2cnc3c(c2)C(=O)N([C@H](C)CO)C[C@@H](C)[C@H](CN(C)Cc2ccc(C(=O)O)cc2)O3)c1
56: C[C@@H]1CN([C@H](C)CO)C(=O)c2cc(NC(=O)Cc3ccccc3)ccc2O[C@@H](C)CCCCO[C@@H]1CN(C)S(=O)(=O)c1cccs1
57: O=C(C[C@@H]1C[C@@H]2c3cc(NS(=O)(=O)c4ccc(F)cc4)ccc3O[C@@H]2[C@H](CO)O1)N1CCOCC1
58: C[C@@H]1CCCCO[C@@H](CN(C)C(=O)c2ccncc2)[C@@H](C)CN([C@H](C)CO)C(=O)c2cc(NS(=O)(=O)c3ccccc3)ccc2O1
59: COc1ccc(-c2cc3c(c(-c4ccc(Oc5ccccc5)cc4)n2)[Si](C(C)C)(C(C)C)OC3)cn1
60: CCNC(=O)Nc1ccc2c(c1)C(=O)N(C)[C@H]1CC[C@@H](CC(=O)NCCOC)O[C@H]1CO2

screen / no.,55,56,57,58,59,60
Yeast UUG start,-6,-10,-7,1,3,-13
HIV Env fusion,4[16.7 µM],-12[16.7 µM],-16[16.7 µM],16[16.7 µM],-12[16.7 µM],-1[16.7 µM]

61: COc1ccc(S(=O)(=O)Nc2ccc3c(c2)C(=O)N([C@H](C)CO)C[C@H](C)[C@H](CN(C)Cc2ccc(Oc4ccccc4)cc2)O3)cc1
62: COCC(=O)N(C)C[C@@H]1Oc2ncc(C#Cc3cccnc3)cc2C(=O)N([C@H](C)CO)C[C@H]1C
63: O=C1N[C@@H](Cc2ccccc2)C(=O)N2[C@@H]1C[C@@H](C(=O)NCc1ccc(F)cc1)[C@H]2c1ccc(O)cc1
64: COc1ccc(S(=O)(=O)Nc2ccc3c(c2)C(=O)N([C@H](C)CO)C[C@@H](C)[C@H](CN(C)C(=O)Cc2ccccc2)OCCCC[C@@H](C)O3)cc1
65: Cc1noc(C)c1S(=O)(=O)N(C)C[C@H]1Oc2ccc(NC(=O)CCC(F)(F)F)cc2CC(=O)N([C@@H](C)CO)C[C@H]1C
66: C[C@@H]1CN([C@@H](C)CO)C(=O)c2cccc(NC(=O)Nc3ccc4c(c3)OCO4)c2O[C@H]1CN(C)CC1CC1
67: C[C@H](CO)N1C[C@H](C)[C@@H](CN(C)CC2CC2)Oc2c(NS(=O)(=O)c3cn(C)cn3)cccc2C1=O

screen / no.,61,62,63,64,65,66,67
Yeast UUG start,13,-2,3,-14,-4,1,-5
HIV Env fusion,-5[16.7 µM],-5[16.7 µM],13[16.7 µM],-11[16.7 µM],6[16.7 µM],-25[16.7 µM],-18[16.7 µM]
